Lassa entry inh = Lassa virus entry inhibition; Lassa virus pseudotype entry inhibition, cell reporter; control for the full effect not named in the record; Potency, µM (doses to about 37.9 µM), for inactives: at the highest dose activity change, negative = inhibition, most hits filed as inhibitors; 300,000 compounds, 1.2% hits; AID 540256; active means well fitted inhibition curve with a large enough effect; inconclusive means small, poorly fitted or top-dose-only effect, or effect the other way; inactive means flat fitted curve, though single readings scatter; tested in HEK293 cells; further: on the % scale 0 is the no-effect control and ±100 the full control effect; nearly all actives have a fitted effect of over 50% in size; luciferase read-out
NS1 inh = blocks influenza NS1 protein function; S. cerevisiae slowed by influenza A NS1, growth recovery by OD600; 270,000 compounds, 0.4% hits; Potency, µM (top dose mostly 46.1 µM), for inactives: at the highest dose activity, positive = more growth; AID 2326; active means well fitted rising curve with a large enough effect; inconclusive means small, poorly fitted or top-dose-only effect; inactive means no such curve, though single readings can be large or run the other way; further: nearly all actives have a fitted effect of over 50% in size
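In this qHTS, NS1 from influenza A is expressed in budding yeast, where it slows growth. Cells are switched from glucose to 2% galactose medium (pH 6.0, -URA), treated with compound, and growth recovery is read at OD600.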
2A StopGo = lowers the luciferase signal of an FMDV 2A StopGo reporter. human cells with a luciferase reporter of 2A StopGo recoding; control for the full effect not named in the record. 410,000 compounds, 1.2% hits. AID 1159524. Potency, µM (highest dose often 57.9 µM), inactives show at the highest dose signal change, negative = less light; active = well fitted falling curve with a large enough effect; inconclusive = small, poorly fitted or top-dose-only effect; inactive = no such curve, though single readings can be large or run the other way; tested in HEK293T cells; further: on the % scale 0 is the no-effect control and ±100 the full control effect; nearly all actives have a fitted effect of over 45% in size; luciferase light after 4 h
SARS PLpro yeast = inhibitors of SARS-CoV papain-like protease in yeast; S. cerevisiae expressing SARS-CoV PLpro, growth rescue; control for the full effect not named in the record; Potency, µM (series often up to 32.9 µM), for inactives: at the top dose activity, positive = growth rescue; 330,000 compounds, 0.19% hits; AID 485353; active means well fitted rising curve with a large enough effect; inconclusive means small, poorly fitted or top-dose-only effect; inactive means no such curve, though single readings can be large or run the other way; further: 0% is about no effect; nearly all actives have a fitted effect of over 55% in size; growth read by luminescence after 48 h
Cruzain noTriton = blocks cruzain activity in detergent-free assay. P25779. purified cruzain, Z-FR-AMC fluorescence, no detergent. 200,000 compounds, 2.3% hits. Potency, µM, without a hit: max response, negative = inhibition, hits mostly inhibitors;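 further: plate controls were enzyme without inhibitor for no effect and buffer without enzyme for full effect; nearly all actives have a fitted effect of over 40% in size; top concentration of the series not given in the record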
Target sequence (P25779 123-467 limits assumed): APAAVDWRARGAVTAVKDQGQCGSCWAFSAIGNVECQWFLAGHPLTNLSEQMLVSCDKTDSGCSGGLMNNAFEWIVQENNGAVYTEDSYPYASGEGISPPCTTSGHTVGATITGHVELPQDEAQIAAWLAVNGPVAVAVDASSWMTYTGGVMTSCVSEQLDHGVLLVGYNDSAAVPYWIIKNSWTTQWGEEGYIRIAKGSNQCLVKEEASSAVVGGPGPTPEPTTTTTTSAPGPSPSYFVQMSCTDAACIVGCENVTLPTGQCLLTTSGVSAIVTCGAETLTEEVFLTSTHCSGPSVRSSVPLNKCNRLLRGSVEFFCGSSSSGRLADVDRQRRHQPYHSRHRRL
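Purified cruzain at 1.5 nM, pre-incubated 15 min with compound at room temperature in 100 mM sodium acetate pH 5.5, 5 mM DTT, 0.00005% Triton X-100. Reaction started with 2 uM Z-FR-AMC; AMC fluorescence increase over 60 s gives rate.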
MARV entry inh = inhibitors of Marburg virus binding or cell entry; Marburg virus pseudotyped entry inhibition, cell reporter; control for the full effect not named in the record; about a third of the inactives were read at about 46 µM; Potency, µM (highest dose often 37.8 µM), without a hit: at the top dose activity change, negative = inhibition, hits mostly inhibitors; 300,000 compounds, 1.8% hits; AID 540276; active = well fitted inhibition curve with a large enough effect; inconclusive = small, poorly fitted or top-dose-only effect, or effect the other way; inactive = flat fitted curve, though single readings scatter; tested in HEK293 cells; about a fifth of its hits are not listed in these tables; further: on the % scale 0 is the no-effect control and ±100 the full control effect; luciferase read-out
Cruzain inh Det = blocks cruzain activity in presence of Triton detergent | 200,000 compounds, 0.43% hits | Potency, µM, for inactives: max response, negative = inhibition, actives largely listed as inhibitors | purified cruzain, Z-FR-AMC fluorescence, 0.01% Triton | P25779 | AID 1478;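 further: plate controls were neutral wells for no effect and buffer without enzyme for full effect; nearly all actives have a fitted effect of over 40% in size; top concentration of the series not given in the record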
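15 min RT preincubation of 1.5 nM cruzain with compound, then 2 uM Z-FR-AMC added; kinetic AMC fluorescence, 60 s delta. Triton X-100 0.01%, pH 5.5.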
RE007 growth inh = less growth of the S. pombe RE007 Vpr strain. S. pombe RE007 Vpr strain, BacTiter-Glo ATP luminescence, 24 h; control for the full effect not named in the record. Potency, µM (titrated, usually from 92.2 µM), for inactives: at the highest dose activity change, negative = less growth. 360,000 compounds, 0.21% hits. AID 651644; active = well fitted falling curve with a large enough effect; inconclusive = small, poorly fitted or top-dose-only effect; inactive = no such curve, though single readings can be large or run the other way;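 further: on the % scale 0 is the no-effect control and ±100 the full control effect; nearly all actives have a fitted effect of over 50% in size; the assay follows cell death caused by Vpr and the record does not say whether a fall means rescue or toxicity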
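Fission yeast RE007 carrying one integrated HIV-1 vpr copy, seeded at OD 0.01 in PMG+AL medium with 23 nL pinned compound. Grown 24 h at 30 degrees; viability read by BacTiter-Glo luminescence after 5 min.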
* hit, by the source's call; ? = inconclusive; . = not tested or not shown; & = joins results of further samples; [ ] = dose if it differs, or a comment. Unless noted, the call rests on the fitted dose curve; in most records, active means well fitted curve in the direction sought with a large enough effect; inconclusive means small, poorly fitted or top-dose-only effect, or another doubt; inactive means no such curve, though single readings can be large; an effect the other way counts as inactive or inconclusive. Potency means the concentration at half of the fitted maximal effect.

SMILES	Lassa entry inh	NS1 inh	2A StopGo	SARS PLpro yeast	Cruzain noTriton	MARV entry inh	Cruzain inh Det	RE007 growth inh
O=C(CN1CC=C(c2ccccc2)CC1)NC(=O)NCc1ccco1	-7%	-5%	-11%	-6%	-2%	-12%	-1.5%	-19%
COC(=O)C1=C(C)NC(=S)NC1c1ccc(OC(=O)c2ccco2)cc1 (stereo not drawn)	0%	10%	4%	0%	.	-1%[46.1 µM]	.	-20%
CCc1ccc(C2=CC(c3c(F)cccc3Cl)n3c(nc4ccccc43)N2)cc1 (stereo not drawn)	17%[46.1 µM]	.	13%	.	?	.	-1.8%	.
Cc1cccc(CN2CCc3c([nH]c4ccccc34)C2C(C)(C)C)n1 (stereo not drawn)	-1%[46.1 µM]	-8%	-3%	2%	.	?	.	3%
CC(NC(=S)Nc1ccccc1)C(c1cccs1)N1CCOCC1 (stereo not drawn)	.	-14%	-8%	-4%	.	.	.	11%
O=C(O)C1C2OC3C(OC(=O)C31)C2Br (stereo not drawn)	14%[46.1 µM]	.	-2%	.	.	3%[46.1 µM]	.	8%
COC(=O)CSc1nnc(CCc2ccccc2)n1C	7%	-4%	-4%	5%	.	9%	.	10%
O=C(Nc1nnc(C2CCCC2)s1)C1CCN(S(=O)(=O)c2ccc(Cl)cc2)CC1	5%	4%	.	5%	-16%	3%	-2.5%	11%
Cc1c(Cl)cccc1NC(=O)CCOc1ccccc1	-17%[46.1 µM]	.	7%	.	-4%	.	-7.4%	.
CC(C)NC(=O)CSc1nnc2sc3ccccc3n12	3%	5%	0%	1%	0%	-3%	1.6%	6%
CC12CCCCC1(O)[N+](=O)C1=C(CCCC1)N2[O-] (stereo not drawn)	1%	3%	-12%	-11%	-12%	?	-4.7%	15%
CCOc1ccccc1C(=O)NCC(=O)OCC(=O)N1C(C)CCCC1C (stereo not drawn)	1%	-1%	-15%	8%	?	16%	-21%	-1%
O=C(NCC(c1cccs1)N1CCOCC1)c1ccc(Cl)c([N+](=O)[O-])c1 (stereo not drawn)	9%	6%	-16%	22%	-8%	-14%	-1.7%	12%
CCOC(=O)CNc1c(-c2ccc(OC)cc2)nc2ccc(Cl)cn12	-1%	-18%	.	-30%	-10%	15%	-9.5%	-19%
O=C(NCCN1CCOCC1)N1c2ccccc2Sc2ccccc21	0%	4%	1%	0%	-5%	-2%	4.9%	-2%
CCOc1ccc(-c2c(C(=O)N/N=C(\C)c3cccnc3)nnn2-c2nonc2N)cc1	.	?	-11%	5%	.	.	.	8%
COCCN(CC1CCCN(C2Cc3ccccc3C2)C1)C(=O)CCC(F)(F)F (stereo not drawn)	.	6%	6%	-7%	.	.	.	8%
Cc1ccc(-c2cc(C(=O)NCc3cccnc3)no2)cc1	-10%	-6%	47%[activator]	26%	-15%	2%	5.1%	0%
Cc1cc(NC(=O)COC(=O)c2cc(S(=O)(=O)N3CCOCC3)ccc2N2CCCCC2)no1	3%	-14%	0%	-7%	7%	-21%	0.8%	10%
COc1ccc(-c2nc(SCC(=O)N3CCN(c4ccc(F)cc4)CC3)n[nH]2)cc1	0%[46.1 µM]	.	-13%	.	-6%	.	-0.1%	.
COc1ccc(C2C(C(=O)NCCN3CCOCC3)c3ccccc3C(=O)N2C2CCCCC2)cc1 (stereo not drawn)	-3%	-10%	-10%	5%	-2%	-24%	-0.5%	0%
CCOC(=O)c1ccc(CN(Cc2ccc(OC)cc2)S(=O)(=O)c2cccc(C(F)(F)F)c2)cc1	-19%[46.1 µM]	.	-5%	.	-28%	.	-0.7%	.
O=C(N1CCCCC1)C12CC3CC(CC(C3)C1)C2	9%	-3%	-19%	-18%	-19%	9%	0.0%	16%
Cn1nnnc1SCC(=O)N1CCc2ccccc2C1	-4%	-5%	5%	1%	5%	15%	6.1%	1%
O=C(Nc1ncc([N+](=O)[O-])s1)c1cccs1	.	-148%&-151%	?	-36%&-23%	.	.	.	28µM*
Cc1ccc(C2(O)CC(C)N(C)CC2C)cc1 (stereo not drawn)	0%	6%	-8%	4%	10%	5%[46.1 µM]	4.3%	-10%
COc1ccc(CC(=O)Nc2cc(S(=O)(=O)N3CCOCC3)ccc2N2CCCC2)cc1OC	28%[46.1 µM]	.	-22%	7%	.	-4%[46.1 µM]	.	10%
Cc1nnc(SCc2ccc(Cl)cc2Cl)[nH]c1=O	0%	-44%	25%	-45%	4%	1%	3.1%	16%
O=C(Nc1ccc2[nH]c(=O)[nH]c2c1)c1c(F)c(F)c(F)c(F)c1F	3%	.	-5%	-1%	.	-1%	.	-2%
COc1ccc(OC2CCN(S(=O)(=O)c3ccc(OC)cc3)CC2)cc1	?	1%	?	-2%	3%	-29%[46.1 µM]	3.5%	3%
COc1ccc(NC(C)=O)cc1NC(=O)CSc1nnc(-c2ccncc2)n1C	10%	5%	-25%	14%	2%	6%	6.1%	1%
COc1ccccc1NC(=S)N(Cc1ccccn1)Cc1ccccc1Cl	2%	.	26%	-5%	.	?	.	-10%
COc1ccccc1C(=O)OCCNC(=O)Cn1cnc2c1c(=O)n(C)c(=O)n2C	?	11%	-8%	2%	.	18%	.	20%
O=c1c2ccccc2cnn1Cc1n[nH]c(=S)n1-c1ccc(Cl)cc1	-10%	15%	-20%	8%	5%	?	-3.4%	-3%
CCOC(=O)NC(=O)C(=CNNc1ncc(C(F)(F)F)cc1Cl)C(=O)NC(=O)OCC	6%[46.1 µM]	.	-20%	1%	.	5%[46.1 µM]	.	?
COc1ccc(/C=C2\SC(=S)N(CCCC(=O)Nc3cc(C)on3)C2=O)cc1OC	-5%	8%	-22%	11%	.	19%[46.1 µM]	.	2%
O=c1c2ccccc2sn1-c1nccs1	?	.	21%	-1%	.	?	.	0%
CCOc1cc(-c2noc(-c3ccncc3)n2)cc(Br)c1OC	-29%	-10%	3%	2%	?	-29%	-1.5%	-14%
Cc1cccc(N2CC(C(=O)Nc3ccc4c(c3)OCCO4)CC2=O)c1C (stereo not drawn)	-5%	6%	-4%	1%	.	0%[46.1 µM]	.	12%
O=C(Nc1ccc(F)c(Cl)c1)C1CCN(S(=O)(=O)c2cccnc2)CC1	.	-9%	-26%	-5%	0%	.	1.7%	4%
CCC(=O)Nc1ccc(-c2ccc(NC(=O)CC)c(OC)c2)cc1OC	.	4%	-8%	-1%	.	.	.	12%
CCn1cc(Br)c(C(=O)Nc2ccc(OC)cc2)n1	?	-5%	.	-4%	-3%	11%	4.0%	-12%
CC(C)[C@H](NS(=O)(=O)c1ccccc1)C(=O)OCc1cc([N+](=O)[O-])cc2c1OCOC2	?	.	-2%	.	.	-6%	.	-2%
O=S(=O)(NC1CCCCC1NCc1ccco1)c1ccccc1 (stereo not drawn)	-5%	-2%	.	-5%	-3%	-7%	-2.8%	3%
COCCCNP1(=O)OCC(C)([N+](=O)[O-])CO1 (stereo not drawn)	-3%	.	4%	.	.	2%	.	1%
CCC(=O)NC(c1ccccc1OC)c1ccc2cccnc2c1O (stereo not drawn)	?	-10%	-15%	?	-10%	4.6µM*	1.1%	-4%
CC1(C)COCN1S(=O)(=O)c1ccc(C(=O)Nc2nnc(-c3ccc(Cl)s3)o2)cc1	?	-4%	?	21%	?	6.3µM*	-0.9%	-20%
CC(Oc1ccc2ccc(=O)oc2c1)C(=O)N1CCOCC1 (stereo not drawn)	24%	.	-4%	17%	.	0%[46.1 µM]	.	-2%
CC(C)OC(=O)c1ccc(NCc2cc(O)ccc2O)cc1Cl	10µM*	.	8.9µM*	.	.	2.2µM*	.	28µM*
CCc1nnc(NS(=O)(=O)c2ccc(N/C=C\C(=O)c3cccc4ccccc34)cc2)s1	-9%	4%	?	-16%	14%	-16%	?	-2%
Additional compounds.
SMILES	Lassa entry inh	NS1 inh	2A StopGo	SARS PLpro yeast	Cruzain noTriton	MARV entry inh	Cruzain inh Det	RE007 growth inh
COc1cc(/C=C/C(=O)OCC(=O)N2CCN(S(=O)(=O)c3ccc(C)cc3C)CC2)ccc1O	-2%	17%	?	3%	-6%	?	-7.5%	24%
Cc1oc(-c2ccccc2)nc1C(=O)O	14%	3%	-3%	-1%	.	2%[46.1 µM]	.	1%
O=c1c2ccccc2nc(-c2ccccc2)n1Cc1ccccc1	?	-28%	1%	-12%	-3%	36%	-3.8%	0%
COCCCNC(=O)CN(C1CCCCC1)S(=O)(=O)c1ccc(C)cc1	5%	-92%	12%	-11%	23%	7%	11%	-3%
O=C1NC(=O)C2(CCCCC2)N1	-8%	.	-12%	.	.	2%	.	1%
CCOC(=O)C1CCN(Cc2cc(=O)n3c(-c4ccccc4)csc3n2)CC1	-1%	.	-18%	-2%	.	19%[46.1 µM]	.	8%
O=C(c1ccncc1)N1CCCC(N2CCN(c3ccc(F)cc3)CC2)C1 (stereo not drawn)	-5%	14%	-9%	?	.	28%	.	-10%
CCc1ccc(-n2c(=O)c3c4c(sc3n(CC(=O)c3ccc(F)cc3)c2=O)CCC4)cc1	19%[46.1 µM]	.	-21%	.	-11%	-2%[46.1 µM]	-1.7%	.
COc1ccc(N2C(=O)CC(Sc3nnnn3-c3ccc(F)cc3)C2=O)cc1 (stereo not drawn)	?	-56%	-11%	-6%	.	?	.	16µM*
O=c1cc(CO)oc(C(Nc2ccccn2)c2ccc(C(F)(F)F)cc2)c1O (stereo not drawn)	-14%	-48%	9%	0%	-2%	16%	-3.3%	-6%
CC(=O)Nc1cccc(C(=O)OCC(=O)N(c2ccccc2)C2CCS(=O)(=O)C2)c1 (stereo not drawn)	-3%	.	-18%	-7%	.	1%[46.1 µM]	.	2%
COc1cccc(C(=O)Nc2ccc(-c3nnc(-c4ccco4)o3)cc2)c1	?	1%	-24%	2%	?	7%	4.5%	5%
Cc1cc(OCC(=O)OCC(=O)NC2CCCC2)ccc1Cl	3%	.	-6%	-8%	.	-2%	.	18%
O=C(NCCc1ccccc1)c1cc(-c2ccccc2)nc2n[nH]c(-c3ccccc3)c12	-21%[46.1 µM]	.	31%[activator]	.	?	15%[46.1 µM]	-4.9%	.

Rows are unselected; 4.6% or so of the library scored in one or more.
